# NS1 function inh: blocks influenza NS1 protein function. 270,000 compounds, 0.4% hits. S. cerevisiae slowed by influenza A NS1, growth recovery by OD600. AID 2326. Potency, µM (titrated, usually from 46.1 µM), without a hit: at the highest dose activity, positive = more growth; active means well fitted rising curve with a large enough effect; inconclusive means small, poorly fitted or top-dose-only effect; inactive means no such curve, though single readings can be large or run the other way; also: nearly all actives have a fitted effect of over 50% in size
#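 Compounds were scored for reversing the slow growth caused by influenza A NS1 in S. cerevisiae, measured by optical density at 600 nm. Assay medium contained 2% galactose at pH 6.0; NS1-free yeast of the same strain were the positive control.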
# Lassa entry inh: blocks Lassa virus binding to or entry into cells; AID 540256; 300,000 compounds, 1.2% hits; Potency, µM (titrated, usually from 37.9 µM), inactives show top-dose activity change, negative = inhibition, usual class: inhibitors; Lassa virus pseudotype entry inhibition, cell reporter; control for the full effect not named in the record; active means well fitted inhibition curve with a large enough effect; inconclusive means small, poorly fitted or top-dose-only effect, or effect the other way; inactive means flat fitted curve, though single readings scatter; tested in HEK293 cells; also: % is scaled to controls: 0 for no effect and ±100 for the full control effect; nearly all actives have a fitted effect of over 50% in size; luciferase read-out
# MARV entry inh: inhibitors of Marburg virus binding or cell entry | Potency, µM (top dose mostly 37.8 µM), without a hit: top-dose activity change, negative = inhibition, usual class: inhibitors | 300,000 compounds, 1.8% hits | Marburg virus pseudotyped entry inhibition, cell reporter; control for the full effect not named in the record; about a third of the inactives were read at about 46 µM; active = well fitted inhibition curve with a large enough effect; inconclusive = small, poorly fitted or top-dose-only effect, or effect the other way; inactive = flat fitted curve, though single readings scatter; tested in HEK293 cells; about a fifth of its hits are not listed in these tables; also: % is scaled to controls: 0 for no effect and ±100 for the full control effect; luciferase read-out
# Cruzain inh Det: inhibitors of Trypanosoma cruzi cruzain with detergent. purified cruzain, Z-FR-AMC fluorescence, 0.01% Triton. Potency, µM, for inactives: max response, negative = inhibition, most hits filed as inhibitors. 200,000 compounds, 0.43% hits. AID 1478;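 also: plate controls were neutral wells for no effect and buffer without enzyme for full effect; nearly all actives have a fitted effect of over 40% in size; top concentration of the series not given in the record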
# Target sequence (P25779 123-467 limits assumed): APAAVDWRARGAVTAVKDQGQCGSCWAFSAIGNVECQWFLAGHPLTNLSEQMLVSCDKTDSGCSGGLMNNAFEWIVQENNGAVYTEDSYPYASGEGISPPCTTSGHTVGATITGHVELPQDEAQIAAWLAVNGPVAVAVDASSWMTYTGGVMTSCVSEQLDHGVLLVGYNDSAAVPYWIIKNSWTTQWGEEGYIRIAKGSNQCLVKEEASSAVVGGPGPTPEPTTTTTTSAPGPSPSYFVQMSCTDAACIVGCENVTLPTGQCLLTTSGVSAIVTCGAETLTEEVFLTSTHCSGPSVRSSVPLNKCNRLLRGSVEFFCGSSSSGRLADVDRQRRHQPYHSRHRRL
#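 Compounds were screened in titration against cruzain (1.5 nM) with 0.01% Triton X-100 to counter colloidal aggregation. Activity was the AMC fluorescence increase over 60 s after adding 2 uM Z-FR-AMC at pH 5.5.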
# SARS PLP yeast: inhibitors of SARS-CoV papain-like protease in yeast | 330,000 compounds, 0.19% hits | S. cerevisiae expressing SARS-CoV PLpro, growth rescue; control for the full effect not named in the record | Potency, µM (highest dose often 32.9 µM), inactives show at the top dose activity, positive = growth rescue; active means well fitted rising curve with a large enough effect; inconclusive means small, poorly fitted or top-dose-only effect; inactive means no such curve, though single readings can be large or run the other way; also: 0% is about no effect; nearly all actives have a fitted effect of over 55% in size; growth read by luminescence after 48 h
# Cruzain noTriton: inhibitors of Trypanosoma cruzi cruzain without detergent. Potency, µM, for the others: max response, negative = inhibition, actives largely listed as inhibitors. purified cruzain, Z-FR-AMC fluorescence, no detergent. 200,000 compounds, 2.3% hits;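 also: plate controls were enzyme without inhibitor for no effect and buffer without enzyme for full effect; nearly all actives have a fitted effect of over 40% in size; top concentration of the series not given in the record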
#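 Purified cruzain at 1.5 nM, pre-incubated 15 min with compound at room temperature in 100 mM sodium acetate pH 5.5, 5 mM DTT, 0.00005% Triton X-100. Reaction started with 2 uM Z-FR-AMC; AMC fluorescence increase over 60 s gives rate.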
# RE007 growth inh: less growth of the S. pombe RE007 Vpr strain. S. pombe RE007 Vpr strain, BacTiter-Glo ATP luminescence, 24 h; control for the full effect not named in the record. Potency, µM (top dose mostly 92.2 µM), without a hit: at the top dose activity change, negative = less growth. 360,000 compounds, 0.21% hits. AID 651644; active = well fitted falling curve with a large enough effect; inconclusive = small, poorly fitted or top-dose-only effect; inactive = no such curve, though single readings can be large or run the other way;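 also: % is scaled to controls: 0 for no effect and ±100 for the full control effect; nearly all actives have a fitted effect of over 50% in size; the assay follows cell death caused by Vpr and the record does not say whether a fall means rescue or toxicity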
#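 Fission yeast RE007 carrying one integrated HIV-1 vpr copy, seeded at OD 0.01 in PMG+AL medium with 23 nL pinned compound. Grown 24 h at 30 degrees; viability read by BacTiter-Glo luminescence after 5 min.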
# 2A StopGo: lowers the luciferase signal of an FMDV 2A StopGo reporter; 410,000 compounds, 1.2% hits; AID 1159524; Potency, µM (doses to about 57.9 µM), for the others: at the top dose signal change, negative = less light; human cells with a luciferase reporter of 2A StopGo recoding; control for the full effect not named in the record; active = well fitted falling curve with a large enough effect; inconclusive = small, poorly fitted or top-dose-only effect; inactive = no such curve, though single readings can be large or run the other way; tested in HEK293T cells; also: % is scaled to controls: 0 for no effect and ±100 for the full control effect; nearly all actives have a fitted effect of over 45% in size; luciferase light after 4 h
# Numbers without * were called inactive; ? = inconclusive; nt = no result given; & = joins results of further samples; [ ] = remark or other dose. Unless noted, calls follow the shape of the dose curve; as a rule, active = well fitted curve in the direction sought with a large enough effect; inconclusive = small, poorly fitted or top-dose-only effect, or another doubt; inactive = no such curve, though single readings can be large; an effect the other way counts as inactive or inconclusive. Potency is read from the fitted curve at half-maximal effect.
SMILES,NS1 function inh,Lassa entry inh,MARV entry inh,Cruzain inh Det,SARS PLP yeast,Cruzain noTriton,RE007 growth inh,2A StopGo
Cc1ccc(NC(=O)CCNS(=O)(=O)c2ccc3c(c2)CCN3C(=O)C2CC2)c(Cl)c1,nt,-5%[46.1 µM],nt,-1.5%,nt,-6%,nt,-15%
Cc1c(Cl)ccc2sc(N3CCN(C(=O)C4CC4)CC3)nc12,nt,-19%[46.1 µM],nt,-9.8%,nt,?,nt,0%
Cc1ccc(-c2noc(CN(C(=O)c3ccc(C(C)(C)C)cc3)C(C)C)n2)cc1,nt,-11%[46.1 µM],9%[46.1 µM],-4.4%,nt,3%,nt,24%
O=C(Nc1ccc(F)cc1Cl)C1Cc2ccccc2N1C(=O)c1ccccc1 (stereo not drawn),nt,0%[46.1 µM],nt,0.8%,nt,-3%,nt,-14%
O=C(CCS(=O)(=O)c1ccc(Cl)cc1)Nc1cccc(S(=O)(=O)N2CCCCCC2)c1,nt,?,?,nt,nt,nt,-8%,?
COc1cc(/C=C/C(=O)O)ccc1OS(=O)(=O)c1ccc(C)cc1,nt,-13%[46.1 µM],2%[46.1 µM],nt,-1%,nt,-24%,8%
COc1nc(OC/C(N)=N/O)nc(N2CCOCC2)n1,1%,-16%,23%[46.1 µM],2.6%,0%,7%,5%,2%
COc1ccc(OC)c(N=C2C(=O)Nc3ccccc32)c1,-6%,-11%,-6%,1.7%,5%,6%,-7%,-7%
COC(=O)c1ccc(OC(=O)c2cccs2)cc1,nt,-19%,3%[46.1 µM],nt,1%,nt,14%,-4%
c1ccc(-n2cc(CNCCc3cscn3)c(-c3ccc4c(c3)OCO4)n2)cc1,4%,-2%[46.1 µM],?,nt,0%,nt,2%,12%
Cc1ccc(NC(=O)COc2ccc(Cl)cc2Cl)cc1S(=O)(=O)N1CCOCC1,nt,?,-26%,nt,4%,nt,7%,?
COc1ccc(CCNC(=O)c2nnc(CS(=O)(=O)c3ccccc3)o2)cc1OC,-5%,nt,nt,nt,2%,nt,7%,-15%
O=C(C1CCCO1)N1CCN(c2ccc(F)cc2)CC1 (stereo not drawn),7%,-3%,4%,-7.1%,6%,2%,3%,6%
O=C(c1ccc(F)cc1)n1nc(-c2ccccc2)nc1NCc1ccc(F)cc1,nt,23%[46.1 µM],?,-4.9%,nt,-14%,nt,-4%
COc1ccc(Cl)cc1NC(=O)Nc1cccc([N+](=O)[O-])c1C,-7%,?,?,-5.4%,-5%,?,7%,-9%
CCN1CCCC1CNC(=O)c1cc(OC)c(OC)c(OC)c1 (stereo not drawn),0%,-20%,4%[46.1 µM],6.2%,5%,-11%,-2%,12%
C=CCCN(C(CC(C)C)C(=O)OC)S(=O)(=O)c1ccccc1Br (stereo not drawn),-3%,nt,nt,nt,-6%,nt,-4%,-3%
Cc1cccc(-n2c(O)c(C=Nc3ccccc3N)c(=O)[nH]c2=O)c1,4%,?,?,-7.5%,-16%,-9%,0%,57%[activator]
O=C(CN(C(=O)c1csnn1)c1ccc(Cl)cc1)NCCc1ccccc1,-4%,0%,7%[46.1 µM],nt,25%,nt,-14%,15%
CC(=O)NC(CC(=O)Oc1ccc(C)cc1Br)c1ccccc1 (stereo not drawn),-11%,16%,-24%,nt,-1%,nt,-9%,-15%
COc1cccc(-c2nn(-c3ccccc3)cc2C(=O)NCC(=O)O)c1,2%,1%,1%,-1.7%,-1%,-16%,2%,19%
Cc1nn(-c2ccc(Cl)c(Cl)c2)c(C)c1C(=O)O,nt,1%,-1%[46.1 µM],nt,0%,nt,-12%,-1%
O=C(Nc1c2c(nn1-c1cccc(Cl)c1)CS(=O)C2)c1ccc2c(c1)OCO2 (stereo not drawn),-1%,12%,-2%,nt,-4%,nt,-6%,6%
COc1ccc(OC)c([N+](=O)[O-])c1C(N)=O,5%,8%,-27%,nt,-1%,nt,-6%,-7%
CCNC(=S)NNC(=O)Nc1ccccc1,-2%,-1%,11%,-5.3%,11%,-5%,-3%,15%
CCOC(=O)c1c(C)[nH]c(C(=O)Cn2c(=O)oc3ccccc32)c1C,-4%,?,?,-1.0%,-10%,5%,-2%,22%
Cc1ccc(C(C(=O)NCc2ccc(F)cc2)N(C(=O)c2csnn2)C2CC2)cc1 (stereo not drawn),22%,-6%[46.1 µM],?,nt,1%,nt,6%,22%
O=C(Cc1cn(Cc2cccc(Cl)c2)c2ccccc12)N1CCCC1,-20%,?,?,-4.2%,?,13%,18%,-3%
Cc1cc(C)nc(-n2nc(C)cc2NC(=O)c2cccc(S(=O)(=O)N3CCOCC3)c2)n1,0%,23%,21%&21%,3.9%,0%,?,19%,0%
Cc1cc(C(=O)N/N=C/C=C/c2ccccc2)n[nH]1,-2%,1%,0%[46.1 µM],nt,-2%,nt,-2%,25%
Cc1ccc2c(c1)N(CCC(=O)NCCCOC(C)C)C(=O)C(C)O2 (stereo not drawn),4%,-3%,3%,-0.5%,-7%,3%,19%,-19%
COc1ccc(-c2ccc(-c3nnc(Cc4ccc(OC)c(OC)c4)o3)cc2)cc1,0%,12%,-3%,3.9%,0%,-7%,8%,7%
Cc1ccc(C)c2c1cc(C)c1nnc(SCC(=O)c3cccs3)n12,29%,1%,?,-4.6%,23%,17%,14%,-14%
COc1ccc(N2CCN(C(=O)CCC(=O)N3CCOc4ccc(Cl)cc43)CC2)cc1,-23%,nt,nt,nt,-7%,nt,-9%,-29%
O=C(CSc1n[nH]c(-c2ccccc2Cl)n1)NCCCc1ccccc1,nt,4%[46.1 µM],nt,1.2%,nt,-10%,nt,-23%
CS(=O)(=O)N1CCC(C(=O)Nc2cc(C(F)(F)F)ccc2Cl)CC1,2%,24%,1%,2.9%,-6%,3%,5%,-13%
Cc1cccc(NC(=S)N=Nc2c(O)n(CN3CCOCC3)c3ccccc23)c1C,3%,nt,-1%,-5.5%,-39%,-2%,?,?
O=C(CC(c1ccccc1)c1cc(Br)ccc1O)NCc1ccco1 (stereo not drawn),-44%,?,-19%,-9.0%,-5%,-9%,34%,-17%
O=C(/C=C/c1cccc([N+](=O)[O-])c1)OCC1CCCO1 (stereo not drawn),15%,nt,nt,nt,4%,nt,-8%,0%
CCOP(=O)(OCC)C(NS(=O)(=O)c1ccccc1)C(Cl)(Cl)Cl (stereo not drawn),-3%,-14%[46.1 µM],0%[46.1 µM],nt,-2%,nt,11%,4%
O=C(O)CCC(=O)N1CCN(Cc2ccc3c(c2)OCO3)CC1,0%,-9%[46.1 µM],-3%[46.1 µM],nt,4%,nt,15%,-4%
CCOC(=O)C1CCCN(Cc2cccc(Cl)c2)C1 (stereo not drawn),-7%,-3%,-7%,-0.4%,-1%,-8%,-3%,-15%
CN1CCN(C(=O)c2cccc(S(=O)(=O)N3CCCCC3)c2)CC1,4%,15%,15%,0.5%,-5%,20%,-5%,nt
CS(=O)(=O)N(CC(=O)N1CCN(c2ccccc2F)CC1)c1cccc(C(F)(F)F)c1,7%,-9%,-10%,-1.6%,0%,?,-15%,nt
O=C(CN1C(=O)COc2ccccc21)NCCc1ccc(Cl)cc1,nt,-17%[46.1 µM],nt,1.3%,nt,0%,nt,-23%
Cc1ccc(NC(=O)c2cc(S(=O)(=O)N3CCOCC3)c(Cl)cc2Cl)cc1,nt,?,nt,0.0%,nt,2%,nt,25µM*
CC(C)(C)NC(=O)NC(=O)COC(=O)c1c(F)cccc1Cl,-2%,nt,30%[46.1 µM],nt,2%,nt,-1%,44%[activator]
O=Cc1cccn1-c1cccnc1,-2%,nt,nt,nt,-2%,nt,-12%,-1%
O=C(CN1CCN(c2nc(-c3ccccc3)cs2)CC1)Nc1ccc2c(c1)OCO2,-22%,-10%,7%,2.4%,0%,25µM*,0%,0%
Cn1c(=O)c(C(=O)NCc2ccccc2Cl)c(O)c2ccccc21,-6%,8%[46.1 µM],13%[46.1 µM],nt,2%,nt,16%,26%
CCOc1cc(S(=O)(=O)NCc2ccco2)c(OCC)cc1-n1cnnn1,-6%,0%,0%,-5.7%,0%,-1%,-3%,nt
COc1ccc(-n2c(=S)[nH]c3c(sc(=S)n3-c3ccccc3)c2=O)c(OC)c1,nt,12%,-10%,nt,6%,nt,-25%,?
CCOC(=O)C1=C(C)N(CCCC(=O)O)C(=O)NC1c1ccccc1OS(=O)(=O)c1ccc(C)cc1 (stereo not drawn),-29%,-8%,-5%,-4.5%,21%,20%,-5%,6%
Cc1ccccc1NC(=O)c1ccccc1NC(=O)CCC(=O)O,2%,-3%,?,-0.1%,-3%,5%,26%,-3%
Cc1ccc(C(O)c2nc3ccccc3n2C)cc1 (stereo not drawn),-11%,nt,nt,nt,-2%,nt,-11%,-9%
O=C(COc1cccnc1[N+](=O)[O-])NCc1ccc(F)cc1,-4%,nt,nt,nt,15%,nt,-6%,0%
O=C1OCC2=C1C(c1ccc(F)cc1)Sc1ccccc1N2 (stereo not drawn),8%,?,-29%,-6.1%,-15%,-10%,2%,nt
COc1ccccc1C(=O)NCc1ccc2c(c1)OCO2,-14%,2%,0%,-0.3%,-10%,-1%,4%,nt
Cc1ccnc(OC(C(=O)O)C(OCc2ccccc2)(c2ccc(F)cc2)c2ccc(F)cc2)n1 (stereo not drawn),26%,?,-23%,nt,3%,nt,-3%,-15%
CCCCOC(=O)c1nnc(-c2ccccc2)o1,-32%,20%[46.1 µM],14%[46.1 µM],nt,-2%,nt,-2%,-8%

# Later entries.
SMILES,NS1 function inh,Lassa entry inh,MARV entry inh,Cruzain inh Det,SARS PLP yeast,Cruzain noTriton,RE007 growth inh,2A StopGo
O=C(COC(=O)c1ccccc1Nc1ccccc1)c1ccccc1,5%,-16%,3%,-3.7%,-27%,2%,-8%,nt
COc1cc(C(c2c(C)[nH][nH]c2=O)c2c(C)[nH][nH]c2=O)cc(Cl)c1O,24%,nt,nt,nt,0%,nt,-4%,4%
CCOC(=O)c1cccc(NC(=O)CCc2c(C)nn(-c3ccc(N4CCOCC4)nn3)c2C)c1,nt,9%[46.1 µM],nt,0.1%,nt,?,nt,3%
NC(=O)Cn1nnc(-c2ccc(NC(=O)c3ccc(F)cc3)cc2)n1,nt,1%,-7%[46.1 µM],nt,2%,nt,22%,36%[activator]
CCOCCCNS(=O)(=O)c1ccc(OC)c(Cl)c1Cl,2%,9%,-3%,0.9%,-5%,3%,7%,40%[activator]
COC(=O)[C@H](CC(C)C)NC(=O)CCc1nnc(COc2ccccc2)o1,5%,20%[46.1 µM],-12%[46.1 µM],nt,2%,nt,-10%,0%

# Compound activity from PubChem.
